Source: PubChem BioAssay
TDP1 inh: qHTS Assay for Inhibitors of Tyrosyl-DNA Phosphodiesterase (TDP1) | recombinant TDP1, AlphaScreen DNA substrate cleavage | Potency, µM (doses to about 130 µM), for the others: at the top dose activity change, negative = inhibition, most hits filed as inhibitors | hit rate 0.28% among 350,000; note: nearly all actives have a fitted effect of over 40% in size
Target sequence (Q9NUW8 whole entry, looked up): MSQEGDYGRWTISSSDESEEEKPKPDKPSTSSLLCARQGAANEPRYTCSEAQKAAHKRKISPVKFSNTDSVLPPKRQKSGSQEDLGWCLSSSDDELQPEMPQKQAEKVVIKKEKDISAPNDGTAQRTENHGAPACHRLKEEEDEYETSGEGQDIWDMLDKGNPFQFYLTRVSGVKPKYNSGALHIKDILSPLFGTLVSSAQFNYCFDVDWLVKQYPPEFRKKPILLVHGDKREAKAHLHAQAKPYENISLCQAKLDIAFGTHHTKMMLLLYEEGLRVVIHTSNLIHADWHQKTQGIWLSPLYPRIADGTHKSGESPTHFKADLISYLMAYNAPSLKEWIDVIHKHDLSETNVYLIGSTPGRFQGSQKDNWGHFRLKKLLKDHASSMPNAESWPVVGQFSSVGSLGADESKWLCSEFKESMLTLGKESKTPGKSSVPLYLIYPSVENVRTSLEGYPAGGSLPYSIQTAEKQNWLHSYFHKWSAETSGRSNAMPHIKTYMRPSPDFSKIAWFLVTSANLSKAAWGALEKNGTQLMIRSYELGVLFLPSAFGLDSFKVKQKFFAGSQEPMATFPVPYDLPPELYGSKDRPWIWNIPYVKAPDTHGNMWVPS
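Steps: enzyme plus compound, 15 min RT; add biotin/phosphotyrosine-FITC oligonucleotide (15 nM final), react 5 min; add donor/acceptor beads (10 ug/ml final), 10 min; read AlphaScreen. Tdp1 at 1 nM final.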
N370S GC mod: qHTS Assay for Inhibitors and Activators of N370S glucocerebrosidase as a Potential Chaperone Treatment of Gaucher Disease. N370S GC spleen homogenate, 4MU-glucoside fluorescence. AID 2101, 2009. hit rate 0.092% among 330,000. Lysosomal acid glucosylceramidase (Homo sapiens), P04062. Potency, µM (top dose mostly 59.4 µM), without a hit: top-dose activity change, negative = inhibition, hits mostly inhibitors;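 note: 0% = full enzyme activity and -100% = no enzyme basal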
Numbers without * were called inactive; ? = inconclusive; nt = no result given; & = joins results of further samples; [ ] = another dose, or the depositor's remark. Calls come from the whole dose curve; as a rule, active = well fitted curve in the direction sought with a large enough effect; inconclusive = small, poorly fitted or top-dose-only effect, or another doubt; inactive = no such curve, though single readings can be large; an effect the other way counts as inactive or inconclusive. Unless noted, % is set by controls: 0 for no effect and ±100 for the full control effect; potency is the fitted concentration of half-maximal effect. This is a subset, and most or all hits are left out here.

SMILES	TDP1 inh	N370S GC mod
Cc1ccc2[nH]c3c(c2c1)SC(C)(C)CC3=O	-1%	7%
Cn1c(N)c(C(=O)CSc2nc3ccccc3[nH]2)c(=O)n(C)c1=O	3%	6%
COc1ccc(CC(=O)NC(C)CCc2ccccc2)cc1OC (stereo unspecified)	nt	-3%
Cn1c(SCC(=O)c2cc3ccccc3o2)nnc1-c1ccccc1	0%	1%
O=C(CSc1nnc(CNC(=O)c2ccccc2F)o1)c1ccc(Cl)cc1	3%	4%
CC(O)(CS(=O)(=O)Cc1ccccc1)c1ccccc1Cl (stereo unspecified)	nt	-9%
Cc1cc(C)cc(NC(=O)N2CCCN(c3ncccc3[N+](=O)[O-])CC2)c1	0%	-11%
CC1CCCC(NC(=O)CSc2ncnc3ccccc23)C1C (stereo unspecified)	0%	nt
CCOc1ccc(S(=O)(=O)N2CCC(C(=O)OC(C)C(=O)N(C)C3CCCCC3)CC2)cc1 (stereo unspecified)	3%	-14%
O=C(OCC(=O)N1CCCC1=O)C1COc2ccccc2O1 (stereo unspecified)	0%	0%

A different layout for some results above.
Each structure is followed by: TDP1 inh, N370S GC mod
Cn1c(SCC(=O)c2cc3ccccc3o2)nnc1-c1ccccc1
    0%, 1%
Cc1ccc2[nH]c3c(c2c1)SC(C)(C)CC3=O
    -1%, 7%
O=C(OCC(=O)N1CCCC1=O)C1COc2ccccc2O1 (stereo unspecified)
    0%, 0%
CCOc1ccc(S(=O)(=O)N2CCC(C(=O)OC(C)C(=O)N(C)C3CCCCC3)CC2)cc1 (stereo unspecified)
    3%, -14%
Cn1c(N)c(C(=O)CSc2nc3ccccc3[nH]2)c(=O)n(C)c1=O
    3%, 6%
Cc1cc(C)cc(NC(=O)N2CCCN(c3ncccc3[N+](=O)[O-])CC2)c1
    0%, -11%
COc1ccc(CC(=O)NC(C)CCc2ccccc2)cc1OC (stereo unspecified)
    nt, -3%

Carrying on:
SMILES	TDP1 inh	N370S GC mod
CCn1c(=NC(=O)C2COc3ccccc3O2)sc2c(OC)ccc(OC)c21 (stereo unspecified)	4%	21%
CC(C)(O)C#Cc1ccc(CN2CCN(C3CCCCC3)C(CCO)C2)s1 (stereo unspecified)	-3%	-14%
CC1Oc2ccccc2N(CC(=O)N2CCCC2)C1=O (stereo unspecified)	4%	0%
COc1ccccc1N(CC(=O)Nc1cc(C)on1)S(=O)(=O)c1cccc(C(F)(F)F)c1	-5%	nt
CC1CC(C)CN(C(=O)Cn2c(=O)n(CCCCC(=O)NC3CCCC3)c(=O)c3ccccc32)C1 (stereo unspecified)	7%	-6%
CCOc1ccc(NC(=O)CN(C)C(=O)CCSc2ccc(F)cc2)cc1OCC	1%	nt
CC[C@@H]1CCCCc2ccccc2[C@@H](C(=O)C[C@H](O)CC(C)=O)OC1=O	1%	nt
Cc1ccc(NC(=O)N2CCC(C(=O)NCc3ccc(F)cc3)CC2)cc1	0%	-1%
C=CCc1c(OC(C)=O)c2ccccc2n(C)c1=O	8%	?
CC(=O)N1CCCN(C(=O)c2ccc3nc(Cc4cccc(Cl)c4)oc3c2)CC1	0%	-11%
Cc1ccc(Cn2ncc(C)c2N)o1	-3%	-7%
COc1ccc(OC)c(NC(=O)CCC(=O)Nc2nnc(C(F)(F)F)s2)c1	2%	6%
CN(CC(=O)N1CCCCCC1)S(=O)(=O)c1ccc(F)cc1	-1%	-2%
CCNC(=O)c1sc(-c2ccccc2)nc1C	0%	-14%
COc1ccc(C2CC(c3ccccc3Cl)=NN2c2ccc(S(N)(=O)=O)cc2)cc1 (stereo unspecified)	-7%[56.1 µM]	nt
COCCN(C(=O)c1csnn1)C(C(=O)NC1CCCCC1)c1ccccc1F (stereo unspecified)	0%	-4%
O=C(CN1CCCC1)NCC12CC3CC(CC(C3)C1)C2	6%	?
CC1(c2ccc3c(c2)OCCO3)NC(=O)N(CC(=O)Nc2ccccc2SCC#N)C1=O (stereo unspecified)	1%	nt
CC(C)c1nc(CNC(=O)CC2C(=O)NCCN2Cc2ccc(F)cc2Cl)cs1 (stereo unspecified)	3%	3%
COc1ccc(CNC(=O)c2ccc[nH]2)cc1	3%	4%
Clc1c2c(nc3ccccc13)CCC2	nt	-17%
Cc1nc2c3ccccc3n(Cc3ccccc3F)c2s1	1%	19%
Cc1ccc2cc(CCNC(=O)c3cccs3)c(=O)[nH]c2c1	-1%	2%
CN1CC[C@]2(CCN3CCc4c(oc5ccccc45)[C@@H]3C2)N(C)C1=O	nt	6%
CCC(c1nnnn1Cc1ccc(OC)cc1)N(CCCO)Cc1cc2cc3c(cc2[nH]c1=O)OCO3 (stereo unspecified)	-5%	6%
O=S(=O)(/N=C(/Nc1ccccn1)c1ccccc1)c1ccccc1	1%	8%
O=C(/C=C/c1ccccc1Cl)NCc1ccco1	6%	14%
CN(C)c1ccnc2sc(C(N)=O)c(N)c12	0%	-6%
CCOC(=O)c1sc(NC(=O)CSc2nc(O)c(Cc3ccccc3)c(=O)[nH]2)nc1C	5%	21%
Cc1sc2ncnc(SCC(=O)c3ccc4c(c3)OCCO4)c2c1-c1ccccc1	-3%	8%
O=c1c(Cl)c(NCc2ccco2)cnn1C12CC3CC(CC(C3)C1)C2	5%	29%
CCc1cc2c(NCCN3CCCCC3)ncnc2s1	4%	0%
O=C1CSC(c2ccccc2[N+](=O)[O-])N1c1cccc(F)c1 (stereo unspecified)	-2%	4%
Cc1nc(NN)c2c3c(sc2n1)COC(C)(C)C3	nt	-11%
Cc1ccc(N2CCN(CC(O)COc3cccc(C)c3)CC2)cc1 (stereo unspecified)	8%	-13%
CC(N)c1ccc(Cl)cc1Cl (stereo unspecified)	3%	1%
COC(=O)Oc1ccc(/C=N/NC(=O)CSCc2ccccc2Br)cc1OC	6%	-16%
CC1CCC(NC(=O)CN(C)S(=O)(=O)c2ccc3c(c2)c(=O)n(C)c(=O)n3C)CC1 (stereo unspecified)	1%	?
CC(C)(C)CC(=O)Nc1nn[nH]n1	-1%	-5%
CC(=O)N1c2ccc(S(=O)(=O)N3CCCCCC3)cc2CC1C(=O)NCc1ccccc1C (stereo unspecified)	-1%	nt

Seven entries drawn at random from the list so far:
SMILES	TDP1 inh	N370S GC mod
CC(N)c1ccc(Cl)cc1Cl (stereo unspecified)	3%	1%
CC(C)(C)CC(=O)Nc1nn[nH]n1	-1%	-5%
O=C1CSC(c2ccccc2[N+](=O)[O-])N1c1cccc(F)c1 (stereo unspecified)	-2%	4%
CC1CCC(NC(=O)CN(C)S(=O)(=O)c2ccc3c(c2)c(=O)n(C)c(=O)n3C)CC1 (stereo unspecified)	1%	?
COC(=O)Oc1ccc(/C=N/NC(=O)CSCc2ccccc2Br)cc1OC	6%	-16%
Cc1ccc(N2CCN(CC(O)COc3cccc(C)c3)CC2)cc1 (stereo unspecified)	8%	-13%
O=c1c(Cl)c(NCc2ccco2)cnn1C12CC3CC(CC(C3)C1)C2	5%	29%

Next part.
SMILES	TDP1 inh	N370S GC mod
CC(C)(C)c1ccc(OCCC(=O)NC2=NCCS2)cc1	7%	-15%
COc1cccc(/C=N/NC(=O)CNC(=O)c2ccncc2)c1O	2%	-4%
COc1ccc(COCC(O)CN2CCC(C(N)=O)CC2)cc1 (stereo unspecified)	-1%	4%
CCN(CC)CCNC(=O)C1CCC(=O)N(c2ccc(OC)cc2)C1c1ccc(F)cc1 (stereo unspecified)	3%	-1%
COC(=O)COc1ccc(S(=O)(=O)Nc2ccc3c(c2)OCO3)cc1Cl	2%	1%
O=S(=O)(c1ccc(N2CCCC2c2nc3ccccc3s2)nc1)N1CCOCC1 (stereo unspecified)	6%	-4%[2.35 µM]
Cc1ccc(CNc2c(C=O)c(=O)[nH]c3ccccc23)cc1	nt	1%
CNC(=O)CN(c1cc(OCCOC)c(Cl)cc1Cl)S(=O)(=O)c1ccc(OC)cc1	6%	3%
C=CCn1c(SC(C)C(=O)NCc2ccc3c(c2)OCO3)nnc1C1CCCCC1 (stereo unspecified)	2%	-19%
COc1ccc(C=C(C(C)=O)C(C)=O)cc1OC	nt	-2%
COc1ccc(C2=NOC(C(=O)O)C2)cc1 (stereo unspecified)	-1%	6%
CCOc1ccccc1Nc1nc(N)nc(CN2CCCCC2C)n1 (stereo unspecified)	0%	5%
COc1ccc(C(=O)NNc2ncnc3c2cnn3-c2ccc(C)cc2C)cc1	10%	nt
COCCn1c(-c2ccc(C#N)cc2)nc2c1c(=O)[nH]c(=O)n2Cc1ccccc1	5%	2%
CCn1c(=O)[nH]c2ccccc2c1=O	-1%	4%[12.8 µM]
CCN(CC)S(=O)(=O)c1ccc(N2CCOCC2)c(NC(=O)C2COc3ccccc3O2)c1 (stereo unspecified)	3%	-3%
COC(=O)c1cccc(NS(=O)(=O)c2ccc(NC(C)=O)cc2)c1C	2%	2%
COc1ccc(NC(=O)CSc2nnc(-c3ccccn3)n2N)cc1	-2%	0%
COc1ccnc(Nc2ccc(C)c(C)c2)c1C#N	3%	-7%
CC(NC(=O)C(=O)NCCN1CCN(C(=O)c2ccccc2Br)CC1)c1ccccc1 (stereo unspecified)	nt	0%

In another format: 4 of the compounds above
COC(=O)c1cccc(NS(=O)(=O)c2ccc(NC(C)=O)cc2)c1C
  TDP1 inh = 2%
  N370S GC mod = 2%
COc1ccc(NC(=O)CSc2nnc(-c3ccccn3)n2N)cc1
  TDP1 inh = -2%
  N370S GC mod = 0%
COc1ccnc(Nc2ccc(C)c(C)c2)c1C#N
  TDP1 inh = 3%
  N370S GC mod = -7%
CC(NC(=O)C(=O)NCCN1CCN(C(=O)c2ccccc2Br)CC1)c1ccccc1 (stereo unspecified)
  TDP1 inh = nt
  N370S GC mod = 0%

Further compounds:
SMILES	TDP1 inh	N370S GC mod
C=CC[N+]1(CC(=O)NCc2ccc(NC(C)=O)cc2)CCOCC1	-3%	0%
COc1cccc(/C=N/NC(=O)c2ccoc2C)c1	1%	-2%
COC(=O)c1ccc2c(=O)[nH]c(CCl)nc2c1	5%	-3%
CCOc1ccccc1NC(=O)CSc1nncc2ccccc12	10%	0%
COc1ccc(CCNC(=O)CSc2ncn[nH]2)cc1	3%	6%
C[C@H]1O[C@H](O[C@H]2[C@H](O)[C@@H](O)[C@@H](O[C@H]3[C@H](O)[C@@H](O)C(O)O[C@@H]3CO)O[C@@H]2CO)[C@H](O)[C@@H](O)[C@@H]1N[C@H]1C=C(CO)[C@@H](O)[C@H](O)[C@H]1O (stereo partly specified)	-6%	-3%
CN(C)S(=O)(=O)c1cccc(N2C(=O)CC3(CCCCC3)CC2=O)c1	0%	4%
Cc1ccc(C)c(S(=O)(=O)Nc2ccc(C(=O)N3CCCCC3)cc2)c1	3%	-13%
CN(C)c1nc(OCCNC(=O)Nc2ccccc2)nc(N2CCOCC2)n1	5%	-4%
C=CCCC(=O)NC1CCCc2c1cnn2-c1ccccc1F (stereo unspecified)	nt	-1%
CC(C)c1nc(SCC(=O)Nc2ccc([N+](=O)[O-])cc2Br)n[nH]1	2%	-1%
S=C(NNc1cccc(Cl)c1)NC1CCCCC1	10%	-3%
CC(=O)NC1=NN(C(C)=O)C(C)(c2cccs2)S1 (stereo unspecified)	7%	-7%
COC(=O)CP(=O)(c1ccccc1)c1ccccc1	2%	9%
O=C(c1ccc(C(=O)N2CCOCC2)nc1)N1CCOCC1	-2%	-8%
CCOc1ccc(NC(=O)CSc2ccc(-c3cccnc3)nn2)cc1	1%	12%
CCCCOc1ccc(C(=O)NNC(=O)C2C3C=CC(C3)C2C(=O)O)cc1 (stereo unspecified)	-8%	4%
O=C(Cn1cnc2ccccc21)N/N=C/c1cccc([N+](=O)[O-])c1	-1%	1%
CC1(C)CC(N2CCC(=O)N(C3CC(C)(C)NC(C)(C)C3)C2)CC(C)(C)N1	6%	1%
COc1ccc(NC(=O)CN2C(=O)COc3ccc(S(=O)(=O)N4CCCCC4)cc32)c(OC)c1	5%	-6%
CC(C)CNC(=O)CC(c1ccccc1)c1c(O)ccc2ccccc12 (stereo unspecified)	2%	13%
C=CCn1c(=O)c2ccc(C(=O)NCc3ccccc3)cc2n(Cc2ccc(Cl)cc2)c1=O	3%	-1%
Cc1nc2ccccc2c2c1C(=O)N(Cc1cccnc1)C2=O	3%	11%
CC(=O)Nc1c(I)c(NC(C)=O)c(I)c(C(=O)O)c1I	-3%&5%	9%&4%&1%
C#CC(C)(CC)NC(=O)c1cc2nc(C3CC3)cc(C(F)(F)F)n2n1 (stereo unspecified)	3%	12%
COc1ccc(-n2nnnc2SCC(=O)NNC(=O)c2ccc([N+](=O)[O-])cc2)cc1	3%	-2%
COc1ccc(-c2c(C)nn3c(N4CCC5(CC4)OCCO5)cc(C)nc23)cc1OC	7%	-6%
COc1ccc(CN=CC2=C(O)CNC2=O)cc1	8%	0%
NC(=O)c1sc2nnc(-c3ccccc3)c(-c3ccccc3)c2c1N	nt	2%
CCOC(=O)c1cccc(NC(=S)NC(=O)c2cccnc2)c1	3%	0%
CC(CN(C)Cc1ccccc1)OC(=O)c1ccc(F)cc1 (stereo unspecified)	-3%	-8%
O=C(O)C1CCN(C(=O)c2ccccc2Cl)CC1	-2%	0%
CCOc1ccccc1N1CCN(C(=O)CNC(=O)c2sc3ccccc3c2Cl)CC1	0%	-6%
